Screening data from PubChem.
Ecoli growth: blocks Escherichia coli growth; actives 0.21% (n = 330,000); OD600 absorbance (test concentration not listed); OD600, 23 h; stronger effect = lower value; AID 1053175;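 active means OD600 absorbance below the run mean of sample wells minus 3.6 SD, in any replicate, cut at about 0.56 in these data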;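 further: stock transfer was 300 nL into about 60 µL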
rRNA inh HTS: inhibits bacterial ribosomal RNA function over humanized ribosomes; E. coli WT GFP vs humanized-ribosome RFP mutants, fluorescence, 24 h; stronger effect = lower value; DMSO median 0, no signal -100; GFP signal change (wild-type ribosome), % (test concentration not listed); actives 1.6% (n = 350,000);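 active means significant combined selectivity score with lowered wild-type GFP, culture density cut under 30%, mutant RFP and density less affected; inactive means any of these conditions unmet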; further: one replicate is shown; some compounds called inactive have numbers as strong as hits
HNF4A DNA FP: change in binding of human HNF4 alpha to DNA; actives 0.3% (n = 360,000); AID 1224865; activity change, % at 10 µM; HNF4a-FITC DNA binding, fluorescence polarization, 1 h; P41235; in the data active means activity change above about 30%, passing the limit was not always enough;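 further: controls were the assay level and a saturating level of protein; the project sought stronger binding though the title names inhibitors; some compounds called inactive have numbers as strong as hits; positive values seem to mean higher polarization but the record does not say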
B2AR ag: agonists of human beta-2 adrenergic receptor inducing internalization; Am2.2-beta2AR cells, FAP receptor internalization, flow cytometry; reference of the scale not given here; AID 504454; actives 0.43% (n = 340,000); response, % (test concentration not listed); P07550;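 active means response above a set limit, near 3 SD of response in nonfluorescent compounds, cut at about 42% in these data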;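 further: stock transfer was 100 nL into about 11 µL; a reference agonist was the positive control; negative values mostly stem from fluorescent compounds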
Target sequence (P07550 whole entry, looked up): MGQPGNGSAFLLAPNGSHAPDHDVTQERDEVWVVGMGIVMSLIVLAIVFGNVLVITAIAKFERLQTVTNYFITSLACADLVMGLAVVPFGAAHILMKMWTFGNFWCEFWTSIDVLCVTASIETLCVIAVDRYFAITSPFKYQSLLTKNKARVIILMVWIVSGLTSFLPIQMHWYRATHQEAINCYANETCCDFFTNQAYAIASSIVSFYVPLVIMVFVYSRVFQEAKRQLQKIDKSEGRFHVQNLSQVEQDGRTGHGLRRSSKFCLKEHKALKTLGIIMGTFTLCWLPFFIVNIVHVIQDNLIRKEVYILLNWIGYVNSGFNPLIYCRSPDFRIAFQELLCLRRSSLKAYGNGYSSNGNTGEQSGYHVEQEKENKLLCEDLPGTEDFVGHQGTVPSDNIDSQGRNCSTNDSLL
UCH37 DUB inh: inhibitors of human deubiquitinating enzyme UCH37. Q9Y5K5. purified proteasome/UCH37, Ub-AMC cleavage fluorescence. inhibition, % (no concentration beside the values). actives 0.33% (n = 330,000);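 active means mean of two replicates above 20%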;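 further: 0% = compound-free wells with enzyme and 100% = wells lacking proteasome; stock transfer was 100 nL into about 20 µL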
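Material: human UCH37 enzyme supplied as purified proteasome complex / Amount: 0.15 nM proteasome as dispensed / Buffer or medium: pH 7.4 Tris-HCl (50 mM) with ovalbumin, ATP-MgCl2, DTT / Times: preincubation 30 min, reaction 25 min, room temperature / Technique: AMC fluorescence from Ub-AMC cleavage, excitation 355 nm, emission 460 nm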
FGF22 binding: binders of recombinant human FGF22 by thermal shift; Q9HCT0; SYPRO orange fluorescence; percent of sucrose octasulfate shift, DMSO zero; calls only at 9.99 µM; actives 1.5% (n = 340,000); AID 651658;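 active means melting point raised past a set limit in the mean and every replicate; three in four hits are not shown here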
Target sequence (Q9HCT0 whole entry, looked up): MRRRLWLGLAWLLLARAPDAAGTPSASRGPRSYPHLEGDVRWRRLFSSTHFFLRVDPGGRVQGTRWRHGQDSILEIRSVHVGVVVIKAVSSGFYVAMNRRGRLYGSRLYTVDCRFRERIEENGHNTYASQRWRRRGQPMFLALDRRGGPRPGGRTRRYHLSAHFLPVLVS
ALR inh: blocks human ALR sulfhydryl oxidase activity; actives 3.8% (n = 290,000); inhibition, % (concentration not given with the values); P55789; purified ALR, DTT oxidation, H2O2 HRP-luminol luminescence; AID 485317;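 active means mean and each replicate at 75% or more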;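 further: stock transfer was 7.5 nL into about 7.5 µL; 0% = neutral wells and 100% = wells with inactivated enzyme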
Target sequence (P55789 whole entry, looked up): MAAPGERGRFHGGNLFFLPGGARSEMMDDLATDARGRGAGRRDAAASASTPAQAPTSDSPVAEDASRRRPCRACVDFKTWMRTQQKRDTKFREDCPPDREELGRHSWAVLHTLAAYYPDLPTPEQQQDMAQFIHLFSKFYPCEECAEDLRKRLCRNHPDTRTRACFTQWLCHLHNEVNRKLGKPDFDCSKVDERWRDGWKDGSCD
rRNA inh HTS OD600: recorded beside rRNA inh HTS, whose call it bears; OD600 change, %; measured here: OD600 growth;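 optical density of the mix in the first replicate; 0 = DMSO median and -100 = no signal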
rRNA inh HTS RFP: recorded beside rRNA inh HTS, whose call it bears; RFP signal change, %; measured here: RFP humanized mutant strains;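 first replicate; 0 = DMSO median and -100 = no signal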
* marks the source's active call; other numbers are inactive results; & = joins results of further samples.

Results for O=C(NCCN1CCC(n2c(=O)[nH]c3ccccc32)CC1)c1ccc(F)cc1F ?
rRNA inh HTS: -5.0; HNF4A DNA FP: 0.8; FGF22 binding: inactive; rRNA inh HTS OD600: 5.6; rRNA inh HTS RFP: -1.7

How did CC1=C(C(=O)N2CCOCC2)C(c2ccc(Cl)cc2)NC(=S)N1 (stereo not drawn) do in these assays?
Ecoli growth: 0.702; rRNA inh HTS: 18.0; HNF4A DNA FP: -1.2; B2AR ag: -2.4; UCH37 DUB inh: 2.6; FGF22 binding: inactive; ALR inh: -3.5; rRNA inh HTS OD600: 16.3; rRNA inh HTS RFP: -0.6

What do the screens show for `C/C=C/c1cnc2c(c1)C(=O)N([C@H](C)CO)C[C@@H](C)[C@@H](CN(C)C(=O)NC1CCCC1)O2`?
rRNA inh HTS: 3.8&1.3; HNF4A DNA FP: -4.5; FGF22 binding: inactive; rRNA inh HTS OD600: -6.9&5.2; rRNA inh HTS RFP: -4.1&-0.8

Results for O=C(NCC1CC1)C1(C(F)(F)F)CC(CCCO)CCCO1 (stereo not drawn) ?
Ecoli growth: 0.662; rRNA inh HTS: 7.1; HNF4A DNA FP: -3.7; B2AR ag: -5.4; UCH37 DUB inh: 3.3; FGF22 binding: inactive; ALR inh: -0.6; rRNA inh HTS OD600: 13.8; rRNA inh HTS RFP: 3.7

What do the screens show for `CC1(C)CC(=O)C2=C(C1)N(Cc1cccnc1)C(=O)C2(NC(=O)C1CC1)C(F)(F)F` (stereo not drawn)?
Ecoli growth: 0.737; HNF4A DNA FP: -4.7; B2AR ag: 4.5; UCH37 DUB inh: 1.9; ALR inh: 3.9

What do the screens show for `O=C(Nc1ccccc1)N1CCC(C(=O)N2CCN(c3ccccc3F)CC2)CC1`?
Ecoli growth: 0.653; rRNA inh HTS: -3.3; HNF4A DNA FP: -2.6; B2AR ag: 5.4; UCH37 DUB inh: -0.6; ALR inh: -2.3; rRNA inh HTS OD600: -11.5; rRNA inh HTS RFP: -4.6

Results for CCOC(=O)c1ccc(Nc2c(OCC)c(=O)c2=O)cc1 ?
Ecoli growth: 0.636; rRNA inh HTS: 5.3; HNF4A DNA FP: 2.1; B2AR ag: -3.8; UCH37 DUB inh: 9.5; FGF22 binding: inactive; ALR inh: -3.6; rRNA inh HTS OD600: -5.2; rRNA inh HTS RFP: 0.3

What do the screens show for `COC(CNS(=O)(=O)c1cccc2nonc12)OC`?
Ecoli growth: 0.708; rRNA inh HTS: 17.4; HNF4A DNA FP: -3.2; B2AR ag: -5.4; UCH37 DUB inh: 0.7; FGF22 binding: inactive; ALR inh: 0.1; rRNA inh HTS OD600: 19.0; rRNA inh HTS RFP: 1.7

How did Cc1ccc(C(=O)NCCCNC(=O)COc2ccc(Cl)cc2)cn1 do in these assays?
Ecoli growth: 0.622; rRNA inh HTS: -53.1; HNF4A DNA FP: 0.7; B2AR ag: 0.4; UCH37 DUB inh: 1.1; FGF22 binding: inactive; rRNA inh HTS OD600: -74.2; rRNA inh HTS RFP: -13.9

How did CC1CCCN(C(=O)CSc2ncccn2)C1 (stereo not drawn) do in these assays?
Ecoli growth: 0.668; rRNA inh HTS: 5.1; HNF4A DNA FP: -0.7; B2AR ag: 15.5; UCH37 DUB inh: 1.6; FGF22 binding: inactive; ALR inh: -1.4; rRNA inh HTS OD600: 9.1; rRNA inh HTS RFP: -2.8

Results for CCc1cccc(C)c1NC(=S)N1CCCCC1c1cccnc1 (stereo not drawn) ?
Ecoli growth: 0.719; rRNA inh HTS: 12.1; HNF4A DNA FP: 0.4; B2AR ag: 4.0; UCH37 DUB inh: 0.8; FGF22 binding: inactive; ALR inh: -0.3; rRNA inh HTS OD600: 10.7; rRNA inh HTS RFP: -3.4

What do the screens show for `Cn1nc(OCCOc2ccccc2)ccc1=O`?
Ecoli growth: 0.741; HNF4A DNA FP: -0.6; B2AR ag: 4.5; UCH37 DUB inh: -3.5; ALR inh: 3.4

Results for O=C(Nc1ccncc1)c1cccc(S(=O)(=O)N2CCN(c3ccc(F)cc3)CC2)c1 ?
Ecoli growth: 0.561; rRNA inh HTS: -12.7; HNF4A DNA FP: -4.4; B2AR ag: 4.0; UCH37 DUB inh: 0.8; FGF22 binding: inactive; ALR inh: 5.4; rRNA inh HTS OD600: -57.0; rRNA inh HTS RFP: 10.5

How did COc1cc(CN2CCC(C(=O)NC3CCCC3)CC2)ccc1O do in these assays?
Ecoli growth: 0.693; HNF4A DNA FP: 2.4; B2AR ag: -7.2; UCH37 DUB inh: -0.6; ALR inh: -4.1

What do the screens show for `CCCNC(=O)CSc1nc2ccccc2c(=O)n1CCC`?
Ecoli growth: 0.67; rRNA inh HTS: -4.7; HNF4A DNA FP: -2.5; B2AR ag: -5.1; UCH37 DUB inh: 2.7; FGF22 binding: inactive; ALR inh: -0.9; rRNA inh HTS OD600: -0.8; rRNA inh HTS RFP: -2.0

What do the screens show for `COc1ccc(S(=O)(=O)N(CC(=O)NCc2ccco2)c2ccccc2)cc1OC`?
Ecoli growth: 0.671; HNF4A DNA FP: 0.8; B2AR ag: 0.7; UCH37 DUB inh: 0.6; ALR inh: -0.9

What do the screens show for `Cc1cnc(NC(=O)CSC(=S)N2CCOCC2)s1`?
Ecoli growth: 0.684; rRNA inh HTS: 6.3; HNF4A DNA FP: -1.8; B2AR ag: 3.8; UCH37 DUB inh: 3.3; FGF22 binding: inactive; ALR inh: 97.1*; rRNA inh HTS OD600: 8.3; rRNA inh HTS RFP: 1.8

How did COc1ccccc1N(Cc1ccccc1)S(=O)(=O)c1cccc(C(=O)O)c1 do in these assays?
Ecoli growth: 0.714; rRNA inh HTS: -25.6; HNF4A DNA FP: -0.2; B2AR ag: 1.4; UCH37 DUB inh: -0.3; FGF22 binding: inactive; ALR inh: 2.5; rRNA inh HTS OD600: -29.5; rRNA inh HTS RFP: -8.5

How did NC(=O)Cn1nnc(-c2ccc(C(F)(F)F)cc2)n1 do in these assays?
Ecoli growth: 0.736; HNF4A DNA FP: 2.5; B2AR ag: 1.9; UCH37 DUB inh: 0.4; ALR inh: 1.6

What do the screens show for `Cc1cc(Cl)c(S(=O)(=O)N2CCSCC2)cc1OCC(N)=O`?
Ecoli growth: 0.716; HNF4A DNA FP: 3.0; B2AR ag: 3.0; UCH37 DUB inh: 0.9; ALR inh: -6.8

Already shown: entries from further up.
Results for O=C(NCCN1CCC(n2c(=O)[nH]c3ccccc32)CC1)c1ccc(F)cc1F ?
rRNA inh HTS: -5.0; HNF4A DNA FP: 0.8; FGF22 binding: inactive; rRNA inh HTS OD600: 5.6; rRNA inh HTS RFP: -1.7

How did CC1=C(C(=O)N2CCOCC2)C(c2ccc(Cl)cc2)NC(=S)N1 (stereo not drawn) do in these assays?
Ecoli growth: 0.702; rRNA inh HTS: 18.0; HNF4A DNA FP: -1.2; B2AR ag: -2.4; UCH37 DUB inh: 2.6; FGF22 binding: inactive; ALR inh: -3.5; rRNA inh HTS OD600: 16.3; rRNA inh HTS RFP: -0.6

Next part:
What do the screens show for `COC(=O)CCc1n[nH]c(=O)[nH]c1=O`?
Ecoli growth: 0.734; rRNA inh HTS: 8.6; HNF4A DNA FP: 2.2; B2AR ag: 10.9; UCH37 DUB inh: 1.0; FGF22 binding: inactive; rRNA inh HTS OD600: 6.8; rRNA inh HTS RFP: 0.1

How did CC(=O)c1ccc(NC(=O)C(NC(=O)c2ccccc2)=C(C)C)cc1 do in these assays?
Ecoli growth: 0.692; rRNA inh HTS: 13.9; HNF4A DNA FP: 4.8; B2AR ag: -3.7; UCH37 DUB inh: 4.5; FGF22 binding: inactive; ALR inh: -12.8; rRNA inh HTS OD600: 9.8; rRNA inh HTS RFP: 0.6

What do the screens show for `N#C/C(=C/c1ccc(Br)o1)C(N)=O`?
Ecoli growth: 0.755; HNF4A DNA FP: 0.2; B2AR ag: 0.4; UCH37 DUB inh: 18.7; ALR inh: 7.7

How did COc1ccc(S(=O)(=O)N2CCOCC2)cc1C(=O)Nc1cc(C)on1 do in these assays?
Ecoli growth: 0.774; HNF4A DNA FP: 4.0; B2AR ag: -0.8; UCH37 DUB inh: 1.6; ALR inh: 0.6

Results for CC1=C(C(=O)Nc2ccccn2)C(c2ccc(N(C)C)cc2)n2ncnc2N1 (stereo not drawn) ?
Ecoli growth: 0.697; rRNA inh HTS: 1.4; HNF4A DNA FP: 1.8; B2AR ag: -3.7; UCH37 DUB inh: 2.4; FGF22 binding: inactive; ALR inh: 73.3; rRNA inh HTS OD600: -8.5; rRNA inh HTS RFP: -3.8

What do the screens show for `COCc1cc(C)nc(SCC[N+](C)(C)CC(=O)Nc2cccc(C)c2)c1C#N`?
Ecoli growth: 0.695; rRNA inh HTS: -13.8; HNF4A DNA FP: 0.7; B2AR ag: -2.4; UCH37 DUB inh: 2.0; FGF22 binding: inactive; ALR inh: -2.3; rRNA inh HTS OD600: -7.2; rRNA inh HTS RFP: 6.0

What do the screens show for `Cc1cc(C)n(-c2nc3c(c(=O)[nH]c(=O)n3C)n2CC(O)c2ccccc2)n1` (stereo not drawn)?
Ecoli growth: 0.743; HNF4A DNA FP: -1.6; B2AR ag: -12.7; UCH37 DUB inh: 1.5; ALR inh: 3.8

What do the screens show for `N#CCCN(Cc1ccccc1)C(=O)c1cccs1`?
Ecoli growth: 0.688; rRNA inh HTS: -2.4; HNF4A DNA FP: 2.0; B2AR ag: -3.9; UCH37 DUB inh: -2.1; FGF22 binding: inactive; ALR inh: -4.0; rRNA inh HTS OD600: 1.8; rRNA inh HTS RFP: -0.7

Results for COC1(OC)N=C(N)C2(C#N)C(c3ccc(F)cc3)C12C#N (stereo not drawn) ?
Ecoli growth: 0.71; HNF4A DNA FP: -0.3; B2AR ag: -0.2; UCH37 DUB inh: 1.9; ALR inh: -2.6

What do the screens show for `Clc1ccccc1-c1nc2ccccc2c2nncn12`?
Ecoli growth: 0.695; HNF4A DNA FP: -2.1; B2AR ag: -2.6; UCH37 DUB inh: -1.5; ALR inh: -4.5

What do the screens show for `O=C(c1ccccc1)C1Oc2ccccc2C2CC(c3cccs3)=NN12` (stereo not drawn)?
Ecoli growth: 0.657; rRNA inh HTS: -21.0*; HNF4A DNA FP: 3.2; B2AR ag: 11.9; UCH37 DUB inh: 1.6; FGF22 binding: inactive; ALR inh: -5.4; rRNA inh HTS OD600: -10.0*; rRNA inh HTS RFP: -1.7*

Results for CCCCOC(=O)c1ccc(NC(=O)C2CCCO2)cc1 (stereo not drawn) ?
Ecoli growth: 0.675; HNF4A DNA FP: 1.2; B2AR ag: -0.1; UCH37 DUB inh: 2.2

What do the screens show for `Cc1ccc(O)c(NC(=O)c2ccco2)c1`?
Ecoli growth: 0.705; HNF4A DNA FP: 1.6; B2AR ag: 8.9; UCH37 DUB inh: 5.2; ALR inh: 21.6

How did CSc1ccccc1NC(=O)c1noc2c1CCC2 do in these assays?
Ecoli growth: 0.767; HNF4A DNA FP: -13.1; B2AR ag: -7.9; UCH37 DUB inh: 1.0; ALR inh: 41.3

How did Cc1ccc(NC(=O)N2CCC(C(N)=O)CC2)cc1 do in these assays?
Ecoli growth: 0.677; HNF4A DNA FP: -3.0; B2AR ag: -5.4; UCH37 DUB inh: 3.4; ALR inh: -5.3

What do the screens show for `O=C(CCc1ccccc1)N/N=C\C1CC=CCC1` (stereo not drawn)?
rRNA inh HTS: 22.8; HNF4A DNA FP: -4.6; B2AR ag: -3.2; FGF22 binding: inactive; ALR inh: -11.1; rRNA inh HTS OD600: 20.6; rRNA inh HTS RFP: 2.6

How did CCN(CC)c1ccc(NC(=O)CCNC(=O)c2ccco2)cc1 do in these assays?
Ecoli growth: 0.642; rRNA inh HTS: -14.7; HNF4A DNA FP: -3.5; B2AR ag: -4.4; UCH37 DUB inh: -0.4; FGF22 binding: inactive; ALR inh: 99.0*; rRNA inh HTS OD600: -16.4; rRNA inh HTS RFP: 36.5

An excerpt, so the mix of outcomes need not match the whole.
